A1 apoptosis 2: A1 inhibitors via caspase activation, primary screen, cell-based, luminescence, HTS, two replicates; MEF A1-2A-BIM cells, caspase-Glo luminescence, 3 h; percent of clofoctol response, DMSO zero; caspase activation, % (concentration not given with the values); 24,000 tested, under 10 active; AID 2465, 2010; in the data active = caspase activation above about 5.9%;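 note: wells of about 30 µL received 50 nL stock; the first replicate is given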
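Material: mouse embryonic fibroblasts co-expressing A1 and BIM (A1-2A-BIM), primed for A1 dependence / Quantity: 2500 cells/well / Buffer or medium: RPMI-1640 growth medium with 10% FBS / Doses: 50 nL compound per well, pinned / Schedule: 3 h compound exposure at 37 °C / Signal: Caspase-Glo luminescence (DEVD substrate) / Measure: Caspase-3/7 activation, seen as rise in luminescence signal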
* hit, by the source's call. This is a subset, so the mix of outcomes need not match the whole.

SMILES	A1 apoptosis 2
C[C@@H]1CN([C@@H](C)CO)C(=O)c2cccc(NS(C)(=O)=O)c2O[C@H]1CN(C)CC1CC1	-0.6
C[C@@H]1CN([C@H](C)CO)C(=O)c2cc(NS(C)(=O)=O)ccc2O[C@@H]1CN(C)Cc1ccc(C(=O)Nc2ccccc2N)cc1	1.0
C[C@H](CO)N1C[C@H](C)[C@@H](CN(C)C(=O)C2CCCCC2)OCCCC[C@H](C)Oc2ccc(NC(=O)Nc3ccc(C(F)(F)F)cc3)cc2C1=O	0.6
C[C@H](CO)N1C[C@H](C)[C@H](CN(C)S(=O)(=O)c2ccc(Cl)cc2)Oc2c(NC(=O)C3CCOCC3)cccc2C1=O	0.3
Cc1ccc(S(=O)(=O)N(C)C[C@H]2OCCCC[C@@H](C)Oc3ccc(NC(=O)Nc4c(C)noc4C)cc3C(=O)N([C@H](C)CO)C[C@H]2C)cc1	-0.8
Cc1noc(C)c1S(=O)(=O)Nc1ccc2c(c1)C(=O)N([C@H](C)CO)C[C@@H](C)[C@H](CN(C)C(=O)NC(C)C)OCCCC[C@@H](C)O2	-0.8
C[C@H]1CN([C@@H](C)CO)C(=O)c2cc(NC(=O)c3ccncc3)ccc2O[C@@H]1CN(C)S(=O)(=O)c1ccc(F)cc1	0.1
C[C@@H]1CN([C@H](C)CO)C(=O)c2cc(NC(=O)Cc3cn(C)c4ccccc34)ccc2O[C@@H]1CN(C)S(=O)(=O)c1cccs1	1.6
COc1cccc(-c2cnc3c(c2)C(=O)N([C@H](C)CO)C[C@H](C)[C@H](CN(C)S(=O)(=O)c2ccc(C)cc2)O3)c1	0.0
C[C@@H]1CCCCO[C@@H](CN(C)C(=O)Nc2ccc(F)cc2)[C@H](C)CN([C@@H](C)CO)C(=O)c2cc(NC(=O)C3CCCCC3)ccc2O1	-0.3
C[C@@H]1CN([C@H](C)CO)C(=O)c2cc(NC(=O)c3ccccc3)ccc2O[C@@H](C)CCCCO[C@@H]1CN(C)C(=O)Nc1cccc2ccccc12	1.9
C[C@@H]1CN([C@@H](C)CO)C(=O)c2cc(NC(=O)Nc3ccc4c(c3)OCO4)ccc2O[C@@H]1CN(C)S(=O)(=O)c1cccs1	0.3
C[C@@H]1CCCCO[C@H](CN(C)C(=O)Nc2cccc3ccccc23)[C@H](C)CN([C@@H](C)CO)C(=O)c2cc(NC(=O)c3ccccc3)ccc2O1	-0.9
C[C@H](CO)N1C[C@H](C)[C@H](CN(C)Cc2ccc(Cl)c(Cl)c2)Oc2ccc(NC(=O)C3CCCCC3)cc2CC1=O	-0.7
C[C@H](CO)N1C[C@H](C)[C@H](CN(C)CC2CC2)Oc2ccc(NC(=O)CCCCCC(=O)Nc3ccccc3N)cc2CC1=O	-0.8
COc1ccc(CN(C)C[C@@H]2OCCCC[C@@H](C)Oc3ccc(NS(=O)(=O)c4ccc(F)cc4)cc3C(=O)N([C@@H](C)CO)C[C@H]2C)cc1	0.3
Cc1ccc(S(=O)(=O)Nc2ccc3c(c2)CC(=O)N([C@@H](C)CO)C[C@@H](C)[C@H](CN(C)C(=O)Nc2ccc(F)cc2)O3)cc1	0.3
C[C@H]1CN([C@@H](C)CO)C(=O)Cc2cc(NS(=O)(=O)c3ccccc3)ccc2O[C@@H]1CN(C)C(=O)Nc1cccc2ccccc12	0.8
C[C@H](CO)N1C[C@H](C)[C@H](CN(C)CC2CC2)OCCCC[C@H](C)Oc2ccc(NC(=O)Cc3ccccc3)cc2C1=O	0.3
C[C@H](CO)N1C[C@H](C)[C@H](CN(C)C(=O)Nc2ccc(C(F)(F)F)cc2)Oc2ccc(NC(=O)C3CCCCC3)cc2CC1=O	-0.8
C[C@H](CO)N1C[C@H](C)[C@@H](CN(C)C(=O)Nc2ccccc2)Oc2c(NC(=O)Nc3ccccc3)cccc2C1=O	-0.9
COCCOC(=O)N1C(=O)[C@@]2(c3ccccc31)[C@H](c1ccc(O)cc1)N1[C@H](c3ccccc3)[C@H](c3ccccc3)OC(=O)[C@H]1[C@@H]2C(=O)N1CCN(c2ncccn2)CC1	-0.2
COc1ccc(S(=O)(=O)Nc2ccc3c(c2)C(=O)N([C@H](C)CO)C[C@H](C)[C@H](CN(C)C(=O)c2ccncc2)OCCCC[C@@H](C)O3)cc1	0.5
CN(C)C(=O)[C@@]1(CCS(=O)(=O)c2ccccc2)N=C(c2ccc(OCCCO)cc2)O[C@H]1c1ccccc1	0.3
C[C@H](CO)N1C[C@H](C)[C@@H](CN(C)Cc2ccc(C(F)(F)F)cc2)Oc2ccc(NS(=O)(=O)c3cn(C)cn3)cc2CC1=O	1.1
C[C@@H]1CCCCO[C@H](CN(C)C)[C@H](C)CN([C@@H](C)CO)C(=O)c2cc(NS(=O)(=O)c3cn(C)cn3)ccc2O1	1.0
CC(C)NC(=O)N(C)C[C@@H]1Oc2ccc(NC(=O)Nc3ccccc3)cc2C(=O)N([C@@H](C)CO)C[C@H]1C	1.3
C[C@@H]1CN([C@H](C)CO)C(=O)c2cc(NC(=O)C3CC3)ccc2O[C@H]1CN(C)Cc1ccc(-c2ccccc2)cc1	1.4
Cc1noc(C)c1S(=O)(=O)Nc1ccc2c(c1)C(=O)N([C@@H](C)CO)C[C@@H](C)[C@H](CN(C)C(=O)NC1CCCCC1)OCCCC[C@@H](C)O2	0.3
C[C@H](CO)N1C[C@H](C)[C@@H](CN(C)Cc2ccc3c(c2)OCO3)Oc2ccc(NC(=O)Nc3ccccc3)cc2CC1=O	0.8

Another view of part of the listing above:
structure | A1 apoptosis 2
COc1ccc(CN(C)C[C@@H]2OCCCC[C@@H](C)Oc3ccc(NS(=O)(=O)c4ccc(F)cc4)cc3C(=O)N([C@@H](C)CO)C[C@H]2C)cc1 | 0.3
Cc1ccc(S(=O)(=O)Nc2ccc3c(c2)CC(=O)N([C@@H](C)CO)C[C@@H](C)[C@H](CN(C)C(=O)Nc2ccc(F)cc2)O3)cc1 | 0.3
C[C@H]1CN([C@@H](C)CO)C(=O)Cc2cc(NS(=O)(=O)c3ccccc3)ccc2O[C@@H]1CN(C)C(=O)Nc1cccc2ccccc12 | 0.8
C[C@H](CO)N1C[C@H](C)[C@H](CN(C)CC2CC2)OCCCC[C@H](C)Oc2ccc(NC(=O)Cc3ccccc3)cc2C1=O | 0.3
C[C@H](CO)N1C[C@H](C)[C@H](CN(C)C(=O)Nc2ccc(C(F)(F)F)cc2)Oc2ccc(NC(=O)C3CCCCC3)cc2CC1=O | -0.8
C[C@H](CO)N1C[C@H](C)[C@@H](CN(C)C(=O)Nc2ccccc2)Oc2c(NC(=O)Nc3ccccc3)cccc2C1=O | -0.9
COCCOC(=O)N1C(=O)[C@@]2(c3ccccc31)[C@H](c1ccc(O)cc1)N1[C@H](c3ccccc3)[C@H](c3ccccc3)OC(=O)[C@H]1[C@@H]2C(=O)N1CCN(c2ncccn2)CC1 | -0.2
COc1ccc(S(=O)(=O)Nc2ccc3c(c2)C(=O)N([C@H](C)CO)C[C@H](C)[C@H](CN(C)C(=O)c2ccncc2)OCCCC[C@@H](C)O3)cc1 | 0.5
CN(C)C(=O)[C@@]1(CCS(=O)(=O)c2ccccc2)N=C(c2ccc(OCCCO)cc2)O[C@H]1c1ccccc1 | 0.3

Carrying on.
SMILES	A1 apoptosis 2
Cc1noc(C)c1NC(=O)N(C)C[C@@H]1OCc2cnnn2CCCC(=O)N([C@@H](C)CO)C[C@@H]1C	-1.1
COc1ccc(CN(C)C[C@@H]2Oc3ccc(NC(=O)NC4CCCCC4)cc3C(=O)N([C@H](C)CO)C[C@H]2C)cc1	0.5
Cc1ccc(S(=O)(=O)N(C)C[C@H]2Oc3c(NC(=O)Nc4ccc5c(c4)OCO5)cccc3C(=O)N([C@H](C)CO)C[C@@H]2C)cc1	-0.5
CNC[C@@H]1Oc2ccc(NC(=O)Nc3ccc(C(F)(F)F)cc3)cc2CC(=O)N([C@@H](C)CO)C[C@H]1C	0.0
CNC[C@H]1Oc2ccc(NC(=O)Nc3ccccc3)cc2CC(=O)N([C@H](C)CO)C[C@@H]1C	0.6
CC(C)NC(=O)N(C)C[C@H]1Oc2ccc(NC(=O)CCCCCC(=O)Nc3ccccc3N)cc2CC(=O)N([C@@H](C)CO)C[C@H]1C	0.9
C[C@H]1CN([C@@H](C)CO)C(=O)c2cccc(NC(=O)C3CCOCC3)c2O[C@@H]1CN(C)C(=O)Nc1cccc2ccccc12	-0.2
C[C@@H]1CCCCO[C@H](CN(C)C(=O)Nc2ccc(C(F)(F)F)cc2)[C@H](C)CN([C@H](C)CO)C(=O)c2cc(NS(C)(=O)=O)ccc2O1	-0.4
C[C@@H]1CN([C@@H](C)CO)C(=O)c2cc(NC(=O)Cc3cn(C)c4ccccc34)ccc2O[C@@H]1CN(C)C(=O)Nc1ccccc1	-1.1
CNC[C@H]1Oc2c(NC(=O)Nc3ccccc3)cccc2C(=O)N([C@H](C)CO)C[C@H]1C	-1.2
Cc1ccc(S(=O)(=O)N(C)C[C@@H]2Oc3ccc(NC(=O)NC4CCCCC4)cc3CC(=O)N([C@H](C)CO)C[C@@H]2C)cc1	0.6
Cc1cccc(CN(C)C[C@@H]2Oc3ncc(-c4ccccc4)cc3C(=O)N([C@H](C)CO)C[C@@H]2C)c1	0.5
Cc1noc(C)c1S(=O)(=O)N(C)C[C@@H]1Oc2ccc(NC(=O)Nc3ccccc3)cc2C(=O)N([C@@H](C)CO)C[C@@H]1C	1.3
C[C@@H]1CN([C@H](C)CO)C(=O)c2cccc(NC(=O)C3CCOCC3)c2O[C@@H]1CN(C)S(=O)(=O)c1cccs1	0.0
C[C@@H]1CCCCO[C@@H](CN(C)Cc2ccccc2)[C@@H](C)CN([C@@H](C)CO)C(=O)c2cc(NC(=O)CCCN(C)C)ccc2O1	-0.3
C[C@H]1CCCCO[C@H](CN(C)C)[C@@H](C)CN([C@@H](C)CO)C(=O)c2cc(NC(=O)Nc3ccc(C(F)(F)F)cc3)ccc2O1	-0.4
COc1ccccc1NC(=O)N(C)C[C@H]1OCc2cn(nn2)CCCC(=O)N([C@H](C)CO)C[C@H]1C	-1.4
CC(C)NC(=O)Nc1ccc2c(c1)C(=O)N([C@H](C)CO)C[C@H](C)[C@H](CN(C)C(=O)CCC(F)(F)F)OCCCC[C@@H](C)O2	0.3
COc1ccc(S(=O)(=O)Nc2ccc3c(c2)C(=O)N([C@H](C)CO)C[C@@H](C)[C@H](CN(C)C(=O)NC2CCCCC2)OCCCC[C@@H](C)O3)cc1	0.2
C[C@@H]1CCCCO[C@H](CN(C)Cc2ccc3c(c2)OCO3)[C@@H](C)CN([C@H](C)CO)C(=O)c2cc(NC(=O)c3ccncc3)ccc2O1	1.1
COc1ccc(CN(C)C[C@@H]2Oc3ccc(NC(=O)CCCCCC(=O)Nc4ccccc4N)cc3CC(=O)N([C@H](C)CO)C[C@H]2C)cc1	0.6
COc1ccc(NC(=O)N(C)C[C@H]2OCCCC[C@H](C)Oc3ccc(NC(=O)Nc4ccc5c(c4)OCO5)cc3C(=O)N([C@@H](C)CO)C[C@@H]2C)cc1	-0.9
C[C@@H]1CCCCO[C@@H](CN(C)C(=O)Nc2ccc3c(c2)OCO3)[C@@H](C)CN([C@H](C)CO)C(=O)c2cc(NS(C)(=O)=O)ccc2O1	0.2
O=C(CCCCC(=O)N/N=C/c1ccc(Br)cc1)NO	-0.3
CNC[C@@H]1OCCCC[C@@H](C)Oc2ccc(NC(=O)c3ccncc3)cc2C(=O)N([C@H](C)CO)C[C@H]1C	-1.1
C[C@@H]1CN([C@@H](C)CO)C(=O)CCCn2nncc2CO[C@@H]1CN(C)C(=O)Nc1cccc(F)c1	0.0
C[C@H](CO)N1C[C@H](C)[C@H](CN(C)S(=O)(=O)c2cccs2)Oc2ncc(-c3ccccc3)cc2C1=O	1.0
C[C@@H]1CN([C@@H](C)CO)C(=O)CCCn2cc(nn2)CO[C@H]1CN(C)Cc1ccncc1	-0.3
C[C@@H]1CN([C@@H](C)CO)C(=O)c2cc(NC(=O)C3CCCCC3)ccc2O[C@@H](C)CCCCO[C@H]1CN(C)C(=O)Nc1cccc2ccccc12	1.8
C[C@@H]1CCCCO[C@H](CN(C)S(=O)(=O)c2ccccc2)[C@@H](C)CN([C@@H](C)CO)C(=O)c2cc(NS(=O)(=O)c3ccc(F)cc3)ccc2O1	-0.5
C[C@@H]1CN([C@H](C)CO)C(=O)Cc2cc(NC(=O)Nc3ccccc3)ccc2O[C@@H]1CN(C)Cc1ccc(Oc2ccccc2)cc1	1.8
C[C@H](CO)N1C[C@H](C)[C@@H](CN(C)C(=O)Nc2ccc3c(c2)OCO3)Oc2ccc(NC(=O)C3CCCCC3)cc2C1=O	0.7
Cc1noc(C)c1S(=O)(=O)Nc1ccc2c(c1)C(=O)N([C@H](C)CO)C[C@H](C)[C@@H](CN(C)CC1CCCCC1)O2	0.6
C[C@@H]1CCCCO[C@@H](CN(C)Cc2ccc(C(=O)Nc3ccccc3N)cc2)[C@@H](C)CN([C@H](C)CO)C(=O)c2cc(NC(=O)Nc3ccc4c(c3)OCO4)ccc2O1	0.0
COC(=O)c1cn(C[C@H](Cc2ccccc2)NC(=O)Nc2ccccc2)nn1	1.0
C[C@@H]1CN([C@@H](C)CO)C(=O)c2cccc(NC(=O)c3nc4ccccc4s3)c2O[C@@H]1CN(C)C(=O)NC1CCCCC1	-0.5
Cc1noc(C)c1NC(=O)Nc1cccc2c1O[C@H](CN(C)S(=O)(=O)c1cccs1)[C@H](C)CN([C@@H](C)CO)C2=O	-0.3
Cc1noc(C)c1S(=O)(=O)N(C)C[C@H]1OCCCC[C@H](C)Oc2ccc(NS(=O)(=O)c3ccccc3)cc2C(=O)N([C@H](C)CO)C[C@H]1C	-0.4
C[C@@H]1CN([C@H](C)CO)C(=O)Cc2cc(NC(=O)Cc3ccccc3)ccc2O[C@@H]1CN(C)C(=O)Nc1ccc(C(F)(F)F)cc1	2.4
O=C(N/N=C/c1ccc(O)c(O)c1O)c1ccccn1	-10.7
C[C@H](CO)N1C[C@H](C)[C@@H](CN(C)C(=O)Nc2ccc(F)cc2)Oc2ccc(NC(=O)NC3CCCCC3)cc2C1=O	-3.0

Bioassay records (PubChem)
